# N370S GC = inhibits or activates N370S mutant glucocerebrosidase. N370S GC spleen homogenate, 4MU-glucoside fluorescence. P04062. actives 0.092% (n = 330,000). Potency, µM (top dose mostly 59.4 µM), for inactives: top-dose activity change, negative = inhibition, actives largely listed as inhibitors;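 note: 0% = full enzyme activity and -100% = no enzyme basal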
# GCN5L2 inh = inhibitors of human GCN5L2 histone acetyltransferase. GCN5L2 HAT assay, ThioGlo1 CoA-SH fluorescence. Potency, µM (doses to about 58.9 µM), for inactives: top-dose activity change, negative = inhibition, hits mostly inhibitors. actives 0.21% (n = 390,000). AID 504327
# Target sequence (Q92830 whole entry, looked up): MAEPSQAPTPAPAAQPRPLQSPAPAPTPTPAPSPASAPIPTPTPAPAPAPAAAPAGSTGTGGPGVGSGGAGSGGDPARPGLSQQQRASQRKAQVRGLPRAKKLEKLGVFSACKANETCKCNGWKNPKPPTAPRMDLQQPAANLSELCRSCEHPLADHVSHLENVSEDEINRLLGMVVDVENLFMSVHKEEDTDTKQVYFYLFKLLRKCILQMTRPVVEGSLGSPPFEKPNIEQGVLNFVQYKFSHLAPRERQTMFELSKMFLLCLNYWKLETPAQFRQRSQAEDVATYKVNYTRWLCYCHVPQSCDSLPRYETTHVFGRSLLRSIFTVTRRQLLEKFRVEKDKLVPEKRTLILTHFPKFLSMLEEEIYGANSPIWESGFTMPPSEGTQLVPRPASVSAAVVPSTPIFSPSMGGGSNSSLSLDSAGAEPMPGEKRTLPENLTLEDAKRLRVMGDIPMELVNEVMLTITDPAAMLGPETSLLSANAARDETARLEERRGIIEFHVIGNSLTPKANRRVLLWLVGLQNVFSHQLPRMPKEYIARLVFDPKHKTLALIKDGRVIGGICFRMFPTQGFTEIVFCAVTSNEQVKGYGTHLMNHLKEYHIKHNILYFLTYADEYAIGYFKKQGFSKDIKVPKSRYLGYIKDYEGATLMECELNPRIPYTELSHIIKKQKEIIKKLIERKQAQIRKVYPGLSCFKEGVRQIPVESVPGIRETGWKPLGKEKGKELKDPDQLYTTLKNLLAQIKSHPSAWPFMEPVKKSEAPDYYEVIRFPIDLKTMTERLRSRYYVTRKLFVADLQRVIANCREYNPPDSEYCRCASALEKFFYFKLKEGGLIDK
#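 Titration-based screen in which CoA formation is detected via maleimide probe ThioGlo1 (50uM) turning fluorescent on thiol reaction; substrates H3(1-25) 75uM and acetyl-CoA 70uM, GCN5L2 20nM, 20 min incubation at room temperature.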
# * = called active by the depositor; ? = inconclusive; . = not tested or not shown; & = joins results of further samples; [ ] = dose if it differs, or a comment. Calls come from the whole dose curve; as a rule, active = well fitted curve in the direction sought with a large enough effect; inconclusive = small, poorly fitted or top-dose-only effect, or another doubt; inactive = no such curve, though single readings can be large; an effect the other way counts as inactive or inconclusive. Unless noted, % is set by controls: 0 for no effect and ±100 for the full control effect; potency is the fitted concentration of half-maximal effect. A portion of the library, and most or all hits are left out here.
# Results follow in this order: N370S GC	GCN5L2 inh
- Cc1ccc(C(=O)N2CCN(Cc3ccccc3)CC2)cc1S(=O)(=O)N1CCOCC1
 : ?	1%
- Cc1ccc(CSCC(=O)N(C)CC(=O)Nc2ccc(C)cc2)cc1
 : -9%	0%
- O=C(/C=C/c1ccco1)Oc1cccc2cccnc12
 : -11%	?
- CN(/N=C/C=C/c1ccccc1)c1cc(=O)n(C)c(=O)[nH]1
 : -11%	-5%
- CCOC(=O)c1c(-c2ccc(C)o2)csc1NC(=O)CN1CCCCC1
 : 19%	-13%
- Cc1ccc(NC(=O)Cn2c(=O)n(CCCCC(=O)NCc3ccco3)c(=O)c3ccccc32)cc1
 : 6%	0%
- O=C(CNCc1ccc(F)cc1)Nc1ccc(C(=O)N2CCCCC2)cc1
 : -1%	-3%
- CCCCN(C)S(=O)(=O)c1c(C)[nH]c(=O)[nH]c1=O
 : -14%	1%
- CSc1nc(-c2ccccc2)nc(NC(=O)c2ccccc2)c1C(C)=O
 : 9%	-1%
- Cc1ccc(S(=O)(=O)N2CCN(C(=O)c3ccco3)CC2)cc1
 : 0%	?
- COc1cc(C(=S)N2CCOCC2)ccc1O
 : -13%	-7%&-13%
- CCSc1nnc(-c2ccc(S(=O)(=O)N3CCOCC3)cc2)n1CC1CCCO1 (stereo not drawn)
 : -3%	0%
- CC1=C(C#N)C(=O)OC(C)(C)C1
 : 1%	1%
- CN(C)C(CNC(=O)c1ccc(S(=O)(=O)NCc2ccco2)cc1)c1ccccc1 (stereo not drawn)
 : -8%	0%
- CC(=O)N1CCC(C(=O)OCc2ccc(Cl)cc2)(c2ccccc2)CC1
 : -11%	-3%
- O=C(Nc1ccc(C(=O)N2CCCC2)cc1)c1ccc(F)cc1Cl
 : -5%	1%
- O=C1NC(c2ccccc2)=C(c2nc3ccccc3s2)C(c2ccc(O)cc2)N1 (stereo not drawn)
 : ?	-12%
- CCn1nc(NC(=O)c2ccco2)c2cc3ccccc3nc21
 : -3%	-11%
- CC(C)N(C)C(=O)CCc1nnc(CCc2c[nH]c3ccccc23)o1
 : 8%	-15%
- O=C(c1cc(Cl)nc2ccccc12)N1CCc2ccccc2C1
 : 5%	1%

# Whole records from above. Order of values: N370S GC	GCN5L2 inh
# CN(/N=C/C=C/c1ccccc1)c1cc(=O)n(C)c(=O)[nH]1 is listed with -11%	-5%
# CCOC(=O)c1c(-c2ccc(C)o2)csc1NC(=O)CN1CCCCC1 is listed with 19%	-13%
# CC1=C(C#N)C(=O)OC(C)(C)C1 is listed with 1%	1%
# O=C(CNCc1ccc(F)cc1)Nc1ccc(C(=O)N2CCCCC2)cc1 is listed with -1%	-3%

# The listing picks up, repeating the 4 entries before the break.
# Results follow in this order: N370S GC	GCN5L2 inh
- O=C1NC(c2ccccc2)=C(c2nc3ccccc3s2)C(c2ccc(O)cc2)N1 (stereo not drawn)
 : ?	-12%
- CCn1nc(NC(=O)c2ccco2)c2cc3ccccc3nc21
 : -3%	-11%
- CC(C)N(C)C(=O)CCc1nnc(CCc2c[nH]c3ccccc23)o1
 : 8%	-15%
- O=C(c1cc(Cl)nc2ccccc12)N1CCc2ccccc2C1
 : 5%	1%
- CN(Cc1ccccc1)C(=O)c1ccc(Cl)c([N+](=O)[O-])c1
 : 5%	-2%
- O=C1c2ccccc2NC(c2ccccc2)N1CCCN1CCOCC1 (stereo not drawn)
 : 28%	-1%
- COc1ccc(/C(C)=N/NC(=O)CNC(=O)Cc2ccccc2)c(OC)c1
 : -20%	-1%
- CCCS(=O)(=O)N1CCN=C1SCc1cccnc1
 : -1%	-2%
- c1ccc(CN2CN=C(Nc3nc4ccccc4s3)NC2)cc1
 : 8%	-4%
- CN(Cc1c(C(=O)N/N=C/c2ccc(O)cc2)nnn1-c1nonc1N)c1ccccc1
 : -10%	-10%
- CCOC(=O)c1cc(C(=O)OCC)c(=O)[nH]c1C
 : 15%	-3%
- O=C(OCC(=O)N1CCN(C(=O)c2ccco2)CC1)c1ccccc1C(=O)c1ccccc1
 : 4%	-1%
- Cc1ccc(Nc2nc3nonc3[nH]c2=O)cc1
 : -4%	0%
- O=C(CSc1nnc(CNC(=O)c2c(F)cccc2F)o1)NCc1ccccc1Cl
 : -11%	-5%
- CCN(Cc1ccncc1)C(=O)c1cccc(S(=O)(=O)N2CCOCC2)c1
 : 13%	-5%
- Cc1ccc(-n2ncc3c(=O)n(CC(=O)N4CCCc5ccccc54)cnc32)cc1C
 : -8%	-7%
- Cc1sc2nc(SCC(=O)NCCCO)n(-c3ccccc3)c(=O)c2c1C
 : -8%	-9%
- Cc1cc(C(=O)OCC(=O)N2c3ccccc3CC2C)c(C)o1 (stereo not drawn)
 : -2%	-5%
- CCC(=O)c1ccc(OC)c(OC)c1O
 : -2%	1%
- COCCNC(=O)c1cc2c(=O)n(C)c3ccccc3c2n1C
 : -3%	-6%
- CCc1ccc(-c2nc(SCC(=O)N(CC)C3CCS(=O)(=O)C3)n[nH]2)cc1 (stereo not drawn)
 : 2%	4%
- CCOc1ccccc1C(=O)N/N=C/c1cccc2cccnc12
 : 6%	-10%
- CCC1=Nc2cc(C(=O)NCCN3CCCC3)ccc2Sc2ccccc21
 : -22%	-2%
- COc1ccc(S(=O)(=O)N(C)CC(=O)NCCCn2ccnc2)cc1Cl
 : -1%	-2%
- CCn1c(SCC(=O)NC2=NCCS2)nnc1C(C)NC(=O)c1ccccc1Br (stereo not drawn)
 : -1%	1%
- COc1ccccc1C(=O)NNC1CC(=O)N(c2ccc3c(c2)OCCO3)C1=O (stereo not drawn)
 : 0%	-7%
- CC(C)C(NC(=O)/C=C/c1ccc(F)cc1)C(C)C
 : 11%	-7%
- O=C(CN1CCCc2ccccc21)NCCc1ccc(Cl)cc1
 : 8%	-4%
- CCN(CC)S(=O)(=O)c1ccc(C)c(NC(=O)c2cc(C)oc2C)c1
 : 9%	2%
- CCOc1ccc(N(CC(=O)Nc2ccc3c(c2)OCCO3)S(=O)(=O)c2c(C)noc2C)cc1
 : -2%	-10%
- Cc1ccc(-n2nc(C)c3c(C(=O)NCc4ccccc4)cc(C4CC4)nc32)cc1
 : .	-3%
- Cc1cccc(C(=O)NNS(=O)(=O)c2ccc(F)cc2)c1O
 : -13%	-7%
- COc1ccccc1CNC(=O)CCn1cnc2ccccc2c1=O
 : .	-5%
- COc1ccc(OC)c(S(=O)(=O)N2CCN3CCCC3C2)c1 (stereo not drawn)
 : -1%	-5%
- Cc1cc(C(=O)COC(=O)C2=NNC(=O)CC2)c(C)n1-c1ccc(OC(F)F)cc1
 : -2%	-17%
- CCN(CC)S(=O)(=O)c1ccc2nc(CSc3nnnn3-c3ccc(O)cc3)[nH]c2c1
 : 4%	-6%
- COc1ccc(-c2cc(-c3nnc(COC(=O)C4CC4C)o3)c3ccccc3n2)cc1OC (stereo not drawn)
 : 8%	-29%
- COc1ccc(Cc2nnc(SCC(=O)N3CCN(c4ccccc4)CC3)o2)cc1
 : 2%	3%
- CCOC(=O)c1ccc2[nH]c(C)cc(=O)c2c1
 : 0%	-4%
- Cc1cc(NC(=O)c2c([N+](=O)[O-])c(C)nn2C)no1
 : -2%	2%
- Cc1nc2ccccc2n1CC(=O)N/N=C/c1cccs1
 : 3%	1%
- O=C(Nc1ccc(S(=O)(=O)NC2CCCC2)cc1)c1cnccn1
 : 8%	0%
- CN(C)c1ccc(NC(=O)CSc2n[nH]c(-c3ccco3)n2)cc1
 : 2%	0%
- O=C(CCCc1ccccc1)Nc1ccnn1C1CCN(Cc2ccc(Cl)cc2)CC1
 : -5%	-10%
- S=c1nc(-c2csc3c2CCCC3)[nH][nH]1
 : -9%	-10%
- CCOC(=O)Cn1c(=N)n(Cc2ccc(C(C)(C)C)cc2)c2ccccc21
 : .	-2%
- COc1ccc2nc(Nc3nc4cc5c(cc4s3)OCCO5)sc2c1
 : -6%	-15%
- COc1ccc(-c2nc(CNS(=O)(=O)c3cc(OC)ccc3OC)cs2)cc1
 : -2%	-4%
- Cc1c(/C=N\NC(=O)c2c[nH]c3ccccc23)cnn1C
 : -6%	-13%
- CCOC(=O)c1cccc(NC(=O)CSc2nncn2-c2ccccn2)c1
 : -1%	-5%
- COc1ccc(C2CC(=O)c3c([nH]c(C(=O)OCc4ccccc4)c3C)C2)cc1OC (stereo not drawn)
 : .	2%
- CCc1cccc(CC)c1NC(=O)c1ccccc1
 : 3%	1%
- CC1=NN(C(=O)c2ccco2)C(O)(c2ccccc2)C1 (stereo not drawn)
 : 0%	-7%
- O=C(CC1C(=O)NCCN1Cc1ccc(-c2ccccc2)cc1)NCCCn1ccnc1 (stereo not drawn)
 : -5%	4%
- CC(C)(C)c1ccc(S(=O)(=O)NNC(=O)c2cc3ccccc3[nH]2)cc1
 : -3%	-14%
- Cc1ccc(/C=N/NC(=O)Cc2c[nH]c3ccccc23)c(C)c1
 : 0%	-10%
- CC1CCCCC1NC(=O)CCCCCn1c(=S)[nH]c2ccsc2c1=O (stereo not drawn)
 : -4%	-3%
- CC(C)CCOc1ccc(-c2c(=O)n(OCc3ccc([N+](=O)[O-])cc3)c3ccccc3[n+]2[O-])cc1
 : -15%	0%
- Cc1ccc(C)c(S(=O)(=O)N2CCN(C(=O)CSC(=S)N3CCCC3)CC2)c1
 : -5%	-13%
- CC(C)CN(C(=O)CN1C(=O)NC2(CCc3ccccc32)C1=O)C1CCS(=O)(=O)C1 (stereo not drawn)
 : .	0%
- COc1ccc(C2CC(c3cccs3)=NN2C(=O)CCl)cc1OC (stereo not drawn)
 : -12%	-5%
- O=C(CCc1nnc2ccc(N3CCCC3)nn12)Nc1cc(F)ccc1F
 : -4%	-15%
- COc1ccccc1-c1coc2cc(OC(=O)/C=C/c3ccccc3)ccc2c1=O
 : -5%	19%
- O=C1ON=C(c2cccc([N+](=O)[O-])c2)/C1=C/c1ccc(O)cc1
 : -7%	-10%

# Other structures follow:
# Results follow in this order: N370S GC	GCN5L2 inh
- O=C(c1cccc(F)c1)N1CCCC(C(=O)N2CCCC2)C1 (stereo not drawn)
 : -9%	3%
- O=C1C2C3C=CC(C3=C3CCCCC3)C2C(=O)N1Cc1ccccc1 (stereo not drawn)
 : 5%	-16%
- C/C(CC(=O)N1CCN(C=O)CC1)=N\NC(=O)c1ccc(Br)cc1
 : -13%	-6%
- Cc1ccc(-c2nc(C#N)c(NCCCn3ccnc3)o2)cc1
 : -20%	-2%
- O=C(CSc1nc2ccccc2s1)N1CCOCC1
 : 5%	?
- CCOC(=O)C1CCCN(Cc2cccc(Cl)c2)C1 (stereo not drawn)
 : -1%	-5%
- CC(=O)N(CCCN(C)C)CCC(C)CCC=C(C)C (stereo not drawn)
 : 0%	2%
- O=C(c1cccn2c(=O)c3cc(Cl)ccc3nc12)N1CCN(Cc2ccc3c(c2)OCO3)CC1
 : -5%	-18%
- COC(=O)N/N=C/c1cccs1
 : 3%	14%
- CCN(CC)S(=O)(=O)c1cccc(-c2nnc(SC(C)C(N)=O)n2CCc2ccccc2)c1 (stereo not drawn)
 : -3%	-3%[0.501 µM]
- O=C(NCc1cccs1)c1nc2c(nnn2Cc2ccc(F)cc2)c(=O)[nH]1
 : 2%	3%
- O=C(CN1C(=O)COc2ccc(S(=O)(=O)N3CCCCCC3)cc21)NCc1ccc(F)cc1
 : -2%	-19%&-2%
- COc1ccc(NC(=O)COc2ccc(N(C)S(=O)(=O)c3ccc(Cl)cc3)cc2)cc1
 : .	-5%
- COC(=O)N/N=C/c1cc(Br)ccc1O
 : 5%	-1%
- CN(CCC#N)C(=S)Nc1ccc(Oc2ccccc2)cc1
 : -4%	-2%
- O=S(=O)(C=C(c1ccccc1)c1ccccc1)c1ccccc1
 : ?	-7%
- O=C(Nc1nnc(Cc2ccccc2)s1)c1cccs1
 : 13%	-2%
- O=C(OCC1CC(c2ccccc2)=NO1)c1ccco1 (stereo not drawn)
 : 1%	-2%
- CCc1ccccc1NC1Nc2cc(C)nn2S1 (stereo not drawn)
 : 0%	-10%
- COc1cc(C(=O)Nc2ccc(OCc3cc(=O)n4cc(C)sc4n3)cc2)cc(OC)c1OC
 : .	-1%
- Cc1ccc(C(=O)NNC(=S)NC(=O)c2ccc(Cl)cc2)cc1
 : 2%	-28%
- CN1CCN(C(=O)c2cc(C(C)(C)C)cc(C(C)(C)C)c2)CC1
 : 1%	-18%
- COc1cccc(NC(=O)CCCN2C(=O)C3CC=CCC3C2=O)c1 (stereo not drawn)
 : -5%	-1%
- Cc1ccc(C)c(OCCCNCc2ccccc2)c1
 : -22%	2%
- O=S(=O)(Nc1ncnc2sc3c(c12)CCC3)c1cc(F)ccc1F
 : -27%	-1%
- CN(Cc1cc([N+](=O)[O-])ccc1Cl)C(=O)C[n+]1ccccc1
 : -11%	-2%
- O=[N+]([O-])c1cccc(C(O)C23CN4CN(CN(C4)C2)C3)c1 (stereo not drawn)
 : 0%	3%
- CC(C)n1ncc2c(C(=O)NCCc3ccc(F)cc3)cc(C3CC3)nc21
 : -9%	-6%
- COc1ccc(OC)c(C2CC(=O)Nc3cc(OC)c(OC)c(OC)c32)c1 (stereo not drawn)
 : 8%	-3%
- CCN(CC)c1ccc(C(=O)Nn2c(C)nc3ccccc3c2=O)cc1
 : -1%	?
- O=S(=O)(NCCN1CCOCC1)c1ccc(-c2ccc(S(=O)(=O)NCCN3CCOCC3)cc2)cc1
 : -4%	-21%
- O=C(CCc1nnc(CCCCc2ccccc2)o1)N1CCC(N2CCCC2)CC1
 : -11%	4%
- CCc1ccc(OC)c(S(=O)(=O)N2CCN(C(=O)c3ccco3)CC2)c1
 : -6%	-12%
- Cc1ccc2cc(CN(CCCO)S(=O)(=O)c3cccc4nsnc34)c(=O)[nH]c2c1C
 : 7%	-3%

# Screens deposited in PubChem BioAssay by National Center for Advancing Translational Sciences (NCATS).
